Compound activity (PubChem BioAssay)
VDR inhibitor – inhibitors of human vitamin D receptor. Potency, µM, without a hit: max response, negative = inhibition, actives largely listed as inhibitors. VDR-SRC2-3 peptide fluorescence polarization, 2 h. 400,000 compounds, 0.93% hits. P11473. AID 504847; active = well fitted inhibition curve with a large enough effect; inconclusive = small, poorly fitted or top-dose-only effect, or another doubt; inactive = no such curve, though single readings can be large or run the other way; also: series mostly up to about 120 µM
Target sequence (P11473 whole entry, looked up): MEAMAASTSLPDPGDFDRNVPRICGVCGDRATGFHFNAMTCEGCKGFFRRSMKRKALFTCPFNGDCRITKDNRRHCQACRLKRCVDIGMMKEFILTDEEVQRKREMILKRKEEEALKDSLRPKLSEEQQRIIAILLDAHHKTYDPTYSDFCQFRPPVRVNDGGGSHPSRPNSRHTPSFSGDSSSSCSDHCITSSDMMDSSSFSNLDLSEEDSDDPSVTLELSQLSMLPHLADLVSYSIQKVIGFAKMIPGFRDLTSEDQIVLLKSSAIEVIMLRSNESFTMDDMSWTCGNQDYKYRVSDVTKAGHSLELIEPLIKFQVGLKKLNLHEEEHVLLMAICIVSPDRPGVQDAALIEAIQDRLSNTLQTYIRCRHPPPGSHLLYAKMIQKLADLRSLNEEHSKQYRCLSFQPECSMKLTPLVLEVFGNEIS
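Inhibition of the VDR/SRC2-3 peptide interaction is quantified by fluorescence polarization. Compounds (23 nl, pintool) incubate with the reagents for 2 hours at ambient room temperature.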
Numbers without * were called inactive; ? = inconclusive; & = joins results of further samples. % is scaled to controls: 0 for no effect and ±100 for the full control effect; potency is read from the fitted curve at half-maximal effect. This is a subset; rates above refer to the full screens.

SMILES	VDR inhibitor
COc1cc(/C=N/NC(=O)c2cc(-c3ccccc3)sc2N)cc(OC)c1OC	-16.8%
Cc1cccc(Nc2nc3c(c(=O)n(C)c(=O)n3C)n2Cc2ccccc2)c1	6.3%
CCc1ccc(NS(=O)(=O)c2ccc3c(c2)CCN3C(=O)CCC(=O)O)cc1	10.2%
CCc1cc(C(=O)N2CCc3c([nH]c4ccccc34)C2c2ccc(OC)cc2F)no1 (centres undefined)	-15.6%
COc1cc([N+](=O)[O-])ccc1NC(=O)CC(C)C	-12.4%
CCCOn1nnnc1-c1ccccc1	-0.9%
CCOc1[nH]n(-c2ccccc2)c(=O)c1C=Nc1ccc(Cl)cc1	15.4%
CC(=O)Nc1ccc(NC(=O)CSc2ccc(C(F)(F)F)cc2[N+](=O)[O-])cc1	-18.4%
Cc1cc2oc(C(=O)Nc3ccc(S(=O)(=O)N4CCC(C)CC4)cc3)cc(=O)c2cc1C	-0.8%
CCOC(=O)c1c(-c2ccc(C)o2)csc1NC(=S)NC(=O)c1ccccc1Br	-4.6%
Cc1ccc(CNC(=O)C(C)n2nc(C)n3c(cc4sccc43)c2=O)cc1 (centres undefined)	-9.6%
CCOC(=O)C1=C(N)N(c2ccccc2Oc2ccccc2)C(=O)C1	2.0%

At a glance, part of the list above.
SMILES	VDR inhibitor
Cc1cc2oc(C(=O)Nc3ccc(S(=O)(=O)N4CCC(C)CC4)cc3)cc(=O)c2cc1C	-0.8%
CCOC(=O)c1c(-c2ccc(C)o2)csc1NC(=S)NC(=O)c1ccccc1Br	-4.6%
Cc1ccc(CNC(=O)C(C)n2nc(C)n3c(cc4sccc43)c2=O)cc1 (centres undefined)	-9.6%

Remaining list, next part
SMILES	VDR inhibitor
O=C(Nc1ccc(F)cc1F)c1csc(-c2ccncc2)n1	-1.1%
COCCNC(=O)C(=O)NCCN1CCNCC1	-7.1%
Cc1ccc(-n2cc(CN(C)Cc3nccn3C)c(-c3ccc(F)cc3)n2)cc1	-9.2%
CC(C)OC(=O)CSc1nnc(CNc2nc(-c3ccccc3)cs2)n1C	-9.7%
O=S(=O)(NNc1ncc(C(F)(F)F)cc1Cl)c1ccccc1	-22.2%
Cc1cc(OCC(=O)Nc2ccc3oc(-c4ccncc4)nc3c2)ccc1Cl	11.8%
O=C(NCc1ccccc1)C(c1cccnc1)N(C(=O)c1csnn1)c1ccc(F)cc1 (centres undefined)	0.0%
NC(N)=N/N=C(\N=Nc1ccccc1)c1ccc(Cl)cc1	?
CS(=O)(=O)c1ccc(C(=O)OCC(=O)Nc2cc(C(F)(F)F)ccc2Cl)cc1[N+](=O)[O-]	?
O=C(NCCc1ccncc1)C12CC3CC(CC(C3)C1)C2	8.2%
CCN(c1ccc(OC)cc1)S(=O)(=O)c1cc(-c2cc(C)no2)ccc1C(C)C	11.7%
COc1cc(-c2ccc3sc(-c4ccsc4)c(C#CCO)c3c2)cc(OC)c1OC	3.7%
O=C(COC(=O)c1ccc(Cl)c(S(=O)(=O)N2CCCCCC2)c1)Nc1ccccc1	-7.0%
COCCNC(=O)CN(c1ccc(F)cc1)S(=O)(=O)c1ccc2c(c1)OCCO2	6.7%
Cc1ccc(-n2c(CCc3ccccc3)nnc2SCC(=O)NCc2ccccc2)cc1C	-0.6%
CN(C)S(=O)(=O)c1ccc(C(=O)Nc2ccc(F)cc2F)cc1	-7.1%
C/C(=N\NC(=O)COc1ccc(C#N)cc1)c1ccccc1OC(F)F	0.2%
Cc1ccc(S(=O)(=O)N2CCCC(N3CCOCC3)C2)cc1Cl (centres undefined)	-3.6%
O=C(Nc1nccs1)c1cc2c(s1)-c1ccccc1OC2	-4.9%
COc1ccc(OC)c(NC(=O)c2ccc(CSc3ncccn3)cc2)c1	10.5%
CCCCN(C(=O)CCn1c(=O)oc2ccccc21)c1ccccc1	2.3%&-9.7%
O=C(c1ccc(N2CCCC2=O)cc1)N1CCN(c2cccc(C(F)(F)F)c2)CC1	-0.7%
Cn1c(=NC(=O)c2ccc(S(=O)(=O)N3CCCC3)cc2)sc2cc(F)ccc21	1.1%
CCCCOc1ccc(C(=O)N2CCN(CC(=O)Nc3ccc(C)cc3)CC2)cc1OC	-13.2%
O=c1cc(N2CCc3ccccc32)[nH]c(=O)n1-c1ccccc1	-3.6%
CC1CCN(S(=O)(=O)c2ccc(C(=O)Nc3sc4c(c3C(N)=O)CC(C)(C)NC4(C)C)cc2)CC1	12.3%
CCn1c(CCNC(=O)c2ccc(Cl)c(Cl)c2)nnc1SCCOc1ccc(OC)cc1	-0.6%
Cc1ccn2c(=O)nc(SCC(=O)NCc3ccco3)nc2c1	-8.5%
COc1ccc(OCC(=O)Nn2c(-c3cccc(OC)c3)nc3ccccc3c2=O)cc1	-14.1%
Cc1cc(Br)cn2cc(C(=O)O)nc12	-8.1%
C/C=C/COC(=O)C1=C(C)NC(=O)NC1c1ccc2c(c1)OCO2 (centres undefined)	-2.3%
O=C(CCS(=O)(=O)c1ccc(Cl)cc1)Oc1ccc2c(c1)OCO2	1.4%
Cc1ccc(NC(=O)COc2coc(CN3CCc4ccccc4C3)cc2=O)c(C)c1	-24.9%
Nc1c(C(=O)C2CC2)sc2nc3c(cc12)CCC3	-15.8%
COCCC(=O)N1CCC(Oc2ccc(C(=O)N3C[C@H]4CC[C@H]3C4)cc2)CC1	-5.4%
COc1ccc(OC)c(NC(=O)COc2ccc(Br)cc2)c1	-8.8%
COc1cccc(N(CC(=O)NC2CCCCC2)C(=O)c2snc(C(N)=O)c2N)c1	-1.5%
O=C(O)C1CCN(S(=O)(=O)c2ccc3c(c2)OCCCO3)CC1	1.6%
COc1ccc(-c2cc(C(F)(F)F)c(C#N)c(SCC(=O)Nc3nc(C)co3)n2)cc1	16.9%
CN(C)C(=S)NC(=O)C12CC3CC(C)(CC(C)(C3)C1)C2	5.4%
Cc1ccc(NC(=S)Nc2ccc(C(C)C)cc2)cc1S(=O)(=O)N1CCCCCC1	-24.9%
Cc1cc(C)n(-c2ccc(Cl)c(C(=O)OCC(=O)N3CCCCC3C)n2)n1 (centres undefined)	1.2%
O=C(N/N=C1/SCC(=O)N1Cc1ccco1)c1ccccc1F	-12.3%
CCCCN1CN(Cc2ccccc2)CNC1=S	-7.9%
N#CCC(=O)N/N=C\c1ccccc1OC/C=C/c1ccccc1	9.9%
Cc1ccc(-n2ncc3c(N4CCCC(C)C4)ncnc32)c(C)c1 (centres undefined)	-10.4%
COc1ccc(CC(=O)OC(C)C(=O)Nc2ccc(S(N)(=O)=O)cc2)cc1 (centres undefined)	-16.6%
Cc1ccc(NC(=O)COC(=O)C2(c3ccc(Cl)cc3)CCCC2)cc1	4.0%
Cc1cc(C(C)(C)C)ccc1NC(=O)CC(C)(C)CC(=O)O	21.0%
O=C(Nc1ccc2c(c1)CCCN2C(=O)c1ccccc1)c1ccccc1Br	3.4%
CCOC(=O)c1cnn(CCOC(=O)Cc2cccs2)c1NC(=O)Cc1cccs1	-1.6%
COn1c2c(c3c4no[n+]([O-])c4ccc31)CCCC2	-6.7%
CCCCC1(C)OC(=O)C(=Cc2ccc(SC)cc2)C(=O)O1 (centres undefined)	10.0%
COc1ccc(C(=O)O/N=C/c2c(C(F)(F)F)nn(C)c2SCc2ccccc2Cl)cc1	5.8%
O=C(Nc1ccc(F)cc1F)C1CCN(c2ncnc3c2sc2cccc(F)c23)CC1	5.5%
O=C1/C(=C/c2cccnc2)SC(=NCc2ccccc2)N1Cc1ccccc1	9.3%
C[C@@H]1OC(Nc2ccc(N=Nc3ccccc3)cc2)[C@H](O)[C@H](O)[C@H]1O (some centres undefined)	-11.7%
c1csc(-c2nc(N3CCCCC3)no2)c1	2.7%
O=C(Cc1c(F)cccc1Cl)Nc1cc(S(=O)(=O)N2CCOCC2)ccc1N1CCCC1	4.0%
O=C(NC1CCN(Cc2ccccc2)C1)c1cccc(S(=O)(=O)N2CCOCC2)c1 (centres undefined)	-8.0%

A different layout for three compounds above:
> Cc1cc(C(C)(C)C)ccc1NC(=O)CC(C)(C)CC(=O)O
  VDR inhibitor: 21.0%
> O=C(Nc1ccc2c(c1)CCCN2C(=O)c1ccccc1)c1ccccc1Br
  VDR inhibitor: 3.4%
> CCOC(=O)c1cnn(CCOC(=O)Cc2cccs2)c1NC(=O)Cc1cccs1
  VDR inhibitor: -1.6%

Additional entries follow:
SMILES	VDR inhibitor
COCCNC(=O)c1cc2cc3ccc(OC)cc3nc2o1	-1.8%
COc1cccc(NC(=O)CN(C)C(=O)c2cn(-c3ccccc3)nc2-c2cccnc2)c1	-16.1%
CC(c1ccccc1F)n1cc(C(=O)NCCCc2nc3ccccc3[nH]2)nn1 (centres undefined)	-4.3%
COc1ccccc1NC(=O)c1cc2c(CO)cnc(C)c2oc1=Nc1cc(OC)c(OC)c(OC)c1	0.3%
O=C(NCC(c1ccc(F)cc1)N1CCOCC1)c1ccco1 (centres undefined)	1.0%
O=S(c1ccccc1O)S(=O)c1ccccc1O (centres undefined)	35.5µM*
O=C(O)C1(P(=O)(c2ccccc2)c2ccccc2)CCCC1	-7.8%
Cc1ccc(Cl)c(OCC(=O)Nc2ccccc2N2CCCCC2)c1	-4.1%
CC(C)OCC(O)CN (centres undefined)	-2.8%
Cc1oc2cc3oc(=O)c(CC(=O)NCC(=O)N[C@@H](C(=O)O)c4ccccc4)c(C)c3cc2c1C	-17.2%
CC1(C)Cc2c(cnn2-c2ccc(F)cc2)C(NC(=O)c2ccc(=O)oc2)C1 (centres undefined)	-16.7%
COc1ccc(-c2noc(CN(C)C3CCOCC3)n2)cc1	-9.8%
Cc1ccc(C)c(N2CCN(c3ccc(NC(=O)c4cccs4)cc3C(=O)O)CC2)c1	4.8%
CCN(CC)CC#CCC(O)(c1ccccc1)C1CCCC1 (centres undefined)	8.6%
CCn1cc(CN2CCc3c([nH]c4ccccc34)C2c2cccc(O)c2)c(C)n1 (centres undefined)	0.0%
COc1ccccc1N1CCN(C(=O)CN(CCc2ccccc2)S(C)(=O)=O)CC1	7.4%
Cc1ccc2nc(Nc3ccccc3)cc(C)c2c1	-11.2%
CCCOC(=O)c1c(NC(=O)CCCn2nc([N+](=O)[O-])cc2C)sc(C(=O)OC)c1C	-5.0%
CCOc1ccccc1CNC(=O)C1CCCN(c2nnc(C)c3c(C)n(-c4ccccc4)nc23)C1 (centres undefined)	1.3%&3.3%
COc1ccccc1CNc1ccnc(-c2ccccc2Cl)n1	-0.3%
COCCn1c(SCc2c(F)cccc2Cl)nc2c1c(=O)[nH]c(=O)n2C	-20.9%
CC(C)C(=O)N1CCN(S(=O)(=O)c2ccc3ccccc3c2)CC1	-6.2%
Cc1ccc(C)n1-c1ccc(N2CCOCC2)c(Br)c1	13.6%
Cc1cc(C)c(S(=O)(=O)N2CCCCC2C(=O)O)c(C)c1 (centres undefined)	-7.7%

Single entries from the results shown:
In VDR inhibitor, CCc1ccc(NS(=O)(=O)c2ccc3c(c2)CCN3C(=O)CCC(=O)O)cc1 is listed with 10.2%
In VDR inhibitor, CN(C)S(=O)(=O)c1ccc(C(=O)Nc2ccc(F)cc2F)cc1 is listed with -7.1%

(listing goes on)
SMILES	VDR inhibitor
CCOC(=O)C1=C(c2ccccc2)NC(=O)N(C(C)=O)C1c1cccc([N+](=O)[O-])c1 (centres undefined)	-14.0%
CC1CC(C)(C)CC2(C1)NC(=O)N(CC(=O)OCc1ccc(Br)cc1)C2=O (centres undefined)	-1.8%
O=c1c2cc(N3CCOCC3)ccc2[nH]c(=S)n1Cc1cccc(Cl)c1	-20.9%
COC(=O)c1ccc(NC(=O)CSc2nnc(-c3ccncc3)n2C)cc1	-21.1%
O=C(Cn1c(=O)n(Cc2ccc(C(=O)NCc3ccc4c(c3)OCO4)cc2)c(=O)c2ccccc21)Nc1ccccc1F	-18.7%
COc1ccc(NC(=O)CN(Cc2ccccc2)Cc2ccccc2)cc1S(N)(=O)=O	-5.9%
CN1CCN(S(=O)(=O)c2ccc(NC(=O)c3cccs3)cc2)CC1	4.6%
O=C(NCc1ccccc1)c1ccc2c(=O)[nH]c3c(C(=O)NCC4CCCO4)sc(=S)n3c2c1 (centres undefined)	-13.7%
COc1ccc(N2C(=O)CSC23C(=O)Nc2ccccc23)cc1 (centres undefined)	-14.9%
COc1ccc(/C=N/Nc2snc(SC)c2C#N)cc1OC	12.2%
O=C(Cn1nnc2c(cnn2-c2ccccc2)c1=O)N1CCN(c2ccccc2F)CC1	-0.3%
Cc1ccccc1CSc1n[nH]c(NS(=O)(=O)c2ccccc2)n1	-3.1%
CCCCNC(=O)CC1N=C2c3ccccc3N=C(SCC(=O)Nc3ccc(OC)cc3)N2C1=O (centres undefined)	-19.0%
c1csc(CNc2nc(-c3ccoc3)nc3ccccc23)c1	22.4µM*
O=C(O)CCC(=O)Nc1ccc2c(c1)Cc1cc(NC(=O)CCC(=O)O)ccc1-2	-18.8%
CC1CCCCN1CC(=O)c1c(N)n(Cc2ccccc2)c(=O)n(C)c1=O (centres undefined)	-6.5%
CCNS(=O)(=O)c1ccc(NC(=O)Cn2nc(C(F)(F)F)cc2C)cc1	0.5%
CC(=O)N1CCC(N(Cc2ccc(C)o2)C(=O)Nc2cccc(C(F)(F)F)c2)CC1	0.6%
COc1ccc(/C=C/C(=O)OCC(=O)NC2CCS(=O)(=O)C2)cc1 (centres undefined)	-11.9%
Cc1cc(C)cc(NC(=O)COC(=O)c2ccc(CN3CCCC3=O)cc2)c1	11.7%
CCCN(CCC)S(=O)(=O)c1cc(CN2C(=O)c3cccnc3C2=O)ccc1OC	9.1%
COC(=O)[C@@H]1[C@H]2C[C@H]3c4[nH]c5ccccc5c4CCN3C[C@H]2CC[C@@H]1O	10.8%&6.2%
CCOC(=O)/C(C#N)=C/NC(=O)NC(C)(C)C	-17.5%
COC(=O)CN1C(=O)[C@H]2[C@@H](c3ccc(C)o3)N3C(=O)CN(Cc4ccc(-c5ccccc5)cc4)C(=O)[C@@]3(C)[C@H]2C1=O	?
COc1ccc(-c2cc(C(=O)OCC(=O)NC(C)C)c3ccccc3n2)cc1	26.5%
COc1ccc(CNC(=O)C2CCN(S(=O)(=O)c3cccc4nonc34)CC2)cc1OC	14.5%
C/C(=N\NC(=O)CC(C)C)c1ccc(Cl)c(Cl)c1	-0.2%
